# Screens as filed in PubChem BioAssay.
# LASV entry inh: qHTS for Inhibitors of binding or entry into cells for Lassa Virus; 18,000 compounds, 4.1% hits; Lassa virus pseudotyped entry inhibition, cell-based qHTS; control for the full effect not named in the record; many of its hits are not listed in these tables; AID 720533, 2013; Potency, µM (titrated, usually from 49.2 µM), for the others: at the top dose activity change, negative = inhibition, actives largely listed as inhibitors; active = well fitted inhibition curve with a large enough effect; inconclusive = small, poorly fitted or top-dose-only effect; inactive = no such curve, though single readings can be large or run the other way; tested in HEK293 cells; further: luciferase read-out
# MARV entry inh: qHTS for Inhibitors of binding or entry into cells for Marburg Virus. Marburg virus pseudotype entry/binding inhibition, cell-based; control for the full effect not named in the record; many of its hits are not listed in these tables. Potency, µM (doses to about 49.2 µM), for inactives: at the top dose activity change, negative = inhibition, actives largely listed as inhibitors. 18,000 compounds, 6.5% hits. AID 720532, 2013; active means well fitted inhibition curve with a large enough effect; inconclusive means small, poorly fitted or top-dose-only effect; inactive means no such curve, though single readings can be large or run the other way; tested in HEK293 cells; further: luciferase read-out
# * = called active by the depositor; ? = inconclusive; · = no result given; & = joins results of further samples; [ ] = remark or other dose. On the % scale 0 is the no-effect control and ±100 the full control effect; potency means the concentration at half of the fitted maximal effect. Compounds were not picked by outcome; overall some 7.3% were active at least once.
compound | LASV entry inh | MARV entry inh
C[C@@H]1N[S+](=O)([O-])c2cc(Cl)ccc2O[C@H]1c1ccccc1 | 7% | -3%
CCOC(=O)[C@]12C[C@@H]3CCN(C(=O)N(C(C)=O)[C@@H]1c1ccccc1)[C@@H]32 | -1%[8.59 µM] | -9%[8.59 µM]
S=c1ccss1 | -2% | 2%
O=P(O)(O)C(O)(Cn1ccnc1)P(=O)(O)O | -6% | 12%
CCC(=O)NCCC1CCc2ccc3c(c21)CCO3 (stereo unspecified) | -7% | -6%
CC(C)=CCCC(C)=CCON=C1C[C@@H](O)[C@@H](O)[C@@H]2[C@H]3C(=O)N(c4cccc(Oc5ccccc5)c4)C(=O)[C@@H]3CC[C@H]12 | -21%[8.59 µM] | 26%[8.59 µM]
O=C1[C@H]2[C@@H]3[C@@H](O)[C@H](O)CC(=NOCc4ccccc4)[C@@H]3CC[C@H]2C(=O)N1Cc1ccc2c(c1)OCO2 | 8%[8.59 µM] | -17%[8.59 µM]
O=C(OCc1cn([C@@H]2CN(C(=O)C3CCCCC3)[C@@H](c3ccccc3)C[C@@H]2O)nn1)c1ccccc1 | 11% | ?
CC(C)C1C(=O)N(Cc2cn(CCC3OCCO3)nn2)CCS(=O)(=O)N1Cc1ccc(-c2ccc(F)nc2)cc1 (stereo unspecified) | 12% | 19%
NCCc1cnc[nH]1 | 0%&4%&6% | 1%&0%&19%
COc1ccccc1[C@H]1C(c2ccc(F)cc2)=NN(c2ccccc2)[C@@H]1CO | -6% | -16%
Nc1ncnc2nc(Cl)[nH]c12 | 1% | 11%
Cc1nc2sccn2c1CN1CCOc2ccc(CN3CCN(c4ccc(F)cc4)CC3)cc2C1 | -11% | ?
COC(=O)c1cc(CNC(=O)c2ccccn2)cc(NC(=O)c2ccccc2OC)c1 | -27% | -27%
COC[C@H]1CCCN1[C@H]1C[S+](=O)([O-])N[C@H]1COCc1ccccc1 | 16% | 36%[activator]
CC(C)CCOC(=O)c1ccc(N(C)C)cc1 | 8% | 8%
CC(=O)OCC1OC(n2cnc3c(=O)[nH]cnc32)C(OC(C)=O)C1OC(C)=O (stereo unspecified) | -3% | -16%
CN1CCCN([C@@H](c2ccccc2)c2ccc(Cl)cc2)CC1 | -11%[17.8 µM] | 11µM*
O=C(c1cc2ccccc2o1)N1CCN(Cc2ccccc2)CC1 | -24% | 13%
CCn1c(-c2ccccc2F)nc2cc(NC(C)=O)cc(C(=O)NCC3CCOCC3)c21 | -4% | 0%
COc1ccc(-c2coc3ccc(OC4OC(COC(C)=O)C(OC(C)=O)C(OC(C)=O)C4OC(C)=O)cc3c2=O)cc1 (stereo unspecified) | -28% | ?
CN(C)CCc1c[nH]c2cccc(O)c12 | -6% | -7%
COC(=O)CCCC1=CC2=C(c3ccccc3)C(=O)C(C)(OC(=O)C3CCCC3)C(=O)C2=CN1Cc1ccc2c(c1)OCO2 (stereo unspecified) | 2%[8.59 µM] | -5%[8.59 µM]
Cc1ccccc1OCC(O)CNCCOc1ccc(C(N)=O)cc1 (stereo unspecified) | -1% | -4%
NC(N)=NCCC[C@@H](N)C(=O)NCC(=O)N[C@@H](CC(=O)O)C(=O)N[C@@H](Cc1c[nH]c2ccccc12)C(=O)O | ? | 26%

# Next results follow:
compound | LASV entry inh | MARV entry inh
CC1CC(OC(=O)c2ccccc2O)CC(C)(C)C1 (stereo unspecified) | 21%&-2% | -1%&9%
O=C(OCc1cn([C@@H]2CN(CC3CCCCC3)[C@@H](c3ccccc3)C[C@@H]2O)nn1)c1ccccc1 | · | -28%
NC1(C(=O)O)CCc2cc(P(=O)(O)O)ccc21 (stereo unspecified) | 11% | 11%
C=CCn1c(=O)c2c(nc(-c3ccccc3)n2C)n(C)c1=O | -4% | 8%
O=C(NCc1nnc2n1CCN(Cc1ccnc3ccccc13)CC2)c1cccc(F)c1 | -6% | -25%
COCCNc1nc(-c2ccccc2C)nc2ccccc12 | -2% | -1%
COc1cccc2c(=O)c3ccoc3n(C)c12 | -7% | 2%
OC[C@@H]1O[C@@H](Oc2ccc(O)cc2)[C@H](O)[C@@H](O)[C@@H]1O | -4% | -9%
CC(C)CON=C1C[C@@H](O)[C@@H](O)[C@@H]2[C@H]3C(=O)N(C4CCCCC4)C(=O)[C@@H]3CC[C@@H]12 | · | -20%[8.59 µM]
O=c1cc(-c2cc3ccccc3oc2=O)c2ccc(O)cc2o1 | 0% | 4%
CC(C)C(N)C(=O)OCCOCn1cnc2c(=O)[nH]c(N)nc21 (stereo unspecified) | 12% | 2%
O=C(c1ccccc1F)N(Cc1cc2cc3c(cc2nc1N1CCOCC1)CCC3)CC1CCCO1 (stereo unspecified) | -3% | ?
Nc1nc2[nH]cc(CCc3ccc(C(=O)N[C@@H](CCC(=O)O)C(=O)O)cc3)c2c(=O)[nH]1 | -24% | ?
CCN[C@H](C)Cc1cccc(C(F)(F)F)c1 | -14%[107 µM] | -24%[107 µM]
C[C@H](CN1CCOCC1)C(C(=O)N1CCCC1)(c1ccccc1)c1ccccc1 | -22%[107 µM] | ?
O=C1CN=C(c2ccccc2)c2cc([N+](=O)[O-])ccc2N1 | -1% | 15%
COC(=O)[C@@]1(OC)C[C@@H]2O[C@@]1(C)n1c3ccccc3c3c4c(c5c6ccccc6n2c5c31)C(=O)N(C)C4 | ? | ?
COc1ccc2c(c1)c1c3n2CCN(C)C3=NCC1 | -26% | ?
C[C@@H]1C=CCC(=O)OC[C@H](C)C(=O)OC[C@H]2O[C@H]1C=C[C@H]2O | -2%[8.59 µM] | -14%[8.59 µM]
COc1ccc2c3c1O[C@H]1C(=O)CC[C@@]4(O)C(C2)N(CC2CC2)CCC314 (stereo partly specified) | -7% | ?
O=CN/C=C/c1cc(F)cc(F)c1F | 1% | -18%
C=C(C)[C@@H]1CC2=C(OC)C(CC=C(C)C)(CC=C(C)C)C(=O)C(C(=O)c3ccccc3)=C2O1 | 9%[8.59 µM] | -15%[8.59 µM]
COCCNc1ccnc(-c2c(C)noc2C)n1 | 2% | 5%
CC1(OC(=O)c2cnc3ccccc3n2)C(=O)C=C2C=C(C3CC3)OC=C2C1=O (stereo unspecified) | 5% | 1%
O=C(NC1CCCC1)c1cn(C2CCCN(Cc3ccc4c(c3)OCCO4)C2)nn1 (stereo unspecified) | -6% | 4%

# Brought forward from above: three entries, followed by the next part.
compound | LASV entry inh | MARV entry inh
COCCNc1ccnc(-c2c(C)noc2C)n1 | 2% | 5%
CC1(OC(=O)c2cnc3ccccc3n2)C(=O)C=C2C=C(C3CC3)OC=C2C1=O (stereo unspecified) | 5% | 1%
O=C(NC1CCCC1)c1cn(C2CCCN(Cc3ccc4c(c3)OCCO4)C2)nn1 (stereo unspecified) | -6% | 4%
OCC1OC(n2cnc3c(Cl)nc(Cl)nc32)C(O)C1O (stereo unspecified) | -28% | ?
CCCCOCC1CN(CCCC)S(=O)(=O)c2c(Oc3ccc(OC)cc3)cccc2O1 (stereo unspecified) | · | ?
NC1(C(=O)O)CCC1 | -11% | -24%
CSCC[C@H](NC(=O)[C@H](Cc1ccc(OS(=O)(=O)O)cc1)NC(=O)[C@@H](N)CC(=O)O)C(=O)NCC(=O)N[C@@H](Cc1c[nH]c2ccccc12)C(=O)N[C@@H](CCSC)C(=O)N[C@@H](CC(=O)O)C(=O)N[C@@H](Cc1ccccc1)C(N)=O | 2%&-4%&1% | -4%&-7%&1%
COc1ccc(-c2ccc(C(=O)N3CCc4c(cnc(C)c4CNS(=O)(=O)N(C)C)C3)o2)cc1 | -22% | -12%
CCC(CN)CC(C)CCNCC(O)CNCC(C)CC(CC)CN (stereo unspecified) | -4% | 16%
O=C1/C(=C\c2cccs2)CCC/C1=C\c1cccs1 | 3% | 30%
CSCC[C@H](NC(=O)[C@H](CC(C)C)NC(=O)[C@H](CO)NC(=O)[C@H](CCC(=O)O)NC(=O)[C@H](CC(C)C)NC(=O)[C@H](Cc1ccc(O)cc1)NC(=O)[C@H](CCCCN)NC(=O)[C@H](CCCCN)NC(=O)[C@H](C)NC(=O)[C@H](CO)NC(=O)[C@H](CC(C)C)NC(=O)[C@H](CCC(N)=O)NC(=O)CNC(=O)[C@H](CC(C)C)NC(=O)[C@H](CC(C)C)NC(=O)[C@H](CCCCN)NC(=O)[C@H](CO)NC(=O)[C@H](Cc1ccccc1)NC(=O)[C@H](CC(=O)O)NC(=O)[C@H](CO)NC(=O)[C@@H](NC(=O)[C@H](Cc1ccccc1)NC(=O)[C@@H](NC(=O)CNC(=O)[C@H](CC(=O)O)NC(=O)[C@H](C)NC(=O)[C@@H](N)Cc1cnc[nH]1)C(C)C)[C@@H](C)O)C(N)=O | -1% | 2%
NCc1ccc(-n2c(-c3nonc3N)nc3cnccc32)cc1 | · | ?
COc1ccccc1C(=O)N[C@@H]1c2ccccc2C2(CCN(C(=O)c3csnn3)CC2)[C@H]1OC | -9% | -1%
CC(C)C[C@H](NC(=O)[C@H](CCc1ccccc1)NC(=O)CN1CCOCC1)C(=O)N[C@@H](Cc1ccccc1)C(=O)N[C@@H](CC(C)C)C(=O)[C@@]1(C)CO1 | 11µM* | ?
COc1ccc2[nH]c(S(=O)Cc3ncc(C)c(OC)c3C)nc2n1 (stereo unspecified) | ? | -11%
O=c1ccc2ccccc2o1 | -8%&1% | -11%&6%
C=CC(=O)N1[C@H](C(=O)OCC)CSCCS1(=O)=O | 5% | -8%
Cc1ccccc1CN1CCc2nnc(C(C)NC(=O)C3CCN(C)CC3)n2CC1 (stereo unspecified) | -10% | -1%
Cc1cccc(-c2cc(=O)c3cc(Br)ccc3o2)c1 | -8% | 25%
OCc1ccccc1O | -23% | 5%
O=C([C@@H]1C[C@@H](Sc2nc3ccccc3[nH]2)CN1Cc1ccc(C(F)(F)F)cc1)N1CCN(c2ccccc2F)CC1 | -17% | ?
O=C1CCN(Cc2cccc(C(F)(F)F)c2)CCN1Cc1ccccn1 | -17% | ?
CSCC[C@H](NC(=O)[C@H](CCCN=C(N)N)NC(=O)[C@@H]1CCCN1C(=O)[C@H](Cc1ccccc1)NC(=O)[C@H](C)NC(=O)[C@H](CC(C)C)NC(=O)[C@H](Cc1ccc(O)cc1)NC(=O)[C@H](CC(N)=O)NC(=O)[C@@H](N)CCSC)C(N)=O | -13% | 7%
C/C=C(/CC[C@@H](C)[C@H]1CC[C@H]2C3=CC[C@H]4[C@H](C)[C@@H](O)CC[C@]4(C)[C@H]3CC[C@]12C)C(C)C | -17% | -23%
O[C@H](CC#CCOc1ccccc1)COCc1ccccc1 | 22%[8.59 µM] | 71%[activator][8.59 µM]
O=S1(=O)N[C@H](Cc2ccccc2)COc2cccc(N3CCCCC3)c21 | 11% | -21%
CC/C=C\C/C=C\C/C=C\C/C=C\C/C=C\CCC(=O)O[C@H](COCCCCCCCCCCCCCCCC)COP(=O)([O-])OCC[N+](C)(C)C | -2% | 8%
Nc1ccc(S(=O)(=O)NC(=O)c2ccccc2)cc1 | 1%[17.8 µM] | -20%[17.8 µM]

# Reprinted from the part before: 2 entries, followed by the next part.
compound | LASV entry inh | MARV entry inh
CC/C=C\C/C=C\C/C=C\C/C=C\C/C=C\CCC(=O)O[C@H](COCCCCCCCCCCCCCCCC)COP(=O)([O-])OCC[N+](C)(C)C | -2% | 8%
Nc1ccc(S(=O)(=O)NC(=O)c2ccccc2)cc1 | 1%[17.8 µM] | -20%[17.8 µM]
FC(F)(F)c1ccccc1-c1cncnc1NCCc1cnc[nH]1 | 0% | -4%
COc1cccc(C2(CC(=O)N3CCC(c4nc5ccccc5o4)CC3)CC(=O)N(C)C2=O)c1 (stereo unspecified) | 14% | 3%
Cc1ccccc1-c1nccc(-n2ccnc2)n1 | -8% | -4%
COC(=O)CCC(=O)OC1(C)C(=O)C=C2C=C(C3CC3)N(CCCOC(C)C)C=C2C1=O (stereo unspecified) | 11%[8.59 µM] | -21%[8.59 µM]
CC(C)[C@@H](CC(=O)N[C@@H]1CCCC[C@H]1C(=O)N[C@H](CC(=O)N[C@@H](CCC(=O)O)CC(=O)O)Cc1c[nH]c2ccccc12)NC(=O)C[C@H](CO)NC(=O)[C@@H]1CCCC[C@H]1N | -6% | 8%
COc1cc2c(cc1C(F)(F)F)N(C(=O)Nc1cc(F)cc(-c3cccnc3)c1)CC2 | ? | ?
CN(C)c1ccc(-c2ccc3ncnc(NCc4ccccc4)c3c2)cc1 | ? | -21%
CC1(O)C(=O)C=C2C=C(c3ccsc3)OC=C2C1=O (stereo unspecified) | -3% | 10%
COc1ccccc1-c1ccnc(-n2ncc(C(=O)NCc3ccncc3)c2C)n1 | ? | -41%
COc1cccc(CNC(=O)c2c(OC)cc(=O)n3c2CCN(C(=O)C2CC24CCCCC4)CC3)c1 (stereo unspecified) | -12% | -19%
COc1ccccc1C1CN(CC(=O)N[C@H]2CCCCNC2=O)Cc2ccccc2O1 (stereo partly specified) | ? | ?
CCOC(=O)C1(c2ccccc2)Oc2ccccc2C(c2ccc(OC)cc2)=C1C(=O)OC (stereo unspecified) | ? | -29%
CCn1cc(CN2Cc3ccccc3OC(c3ccccc3OC)C2)c(C)n1 (stereo unspecified) | -14% | -7%
CN1CCCCC1Cn1cc(C(=O)c2cc([N+](=O)[O-])ccc2I)c2ccccc21 (stereo unspecified) | ? | 10µM*
COC(=O)C1=C(C)N(Cc2ccccc2)C(=NCCc2cccs2)NC1c1cccc(C(F)(F)F)c1 (stereo unspecified) | -11%[8.59 µM] | ?
